Screening data (PubChem BioAssay)
SARS PLpro yeast: qHTS of Yeast-based Assay for SARS-CoV PLP; S. cerevisiae expressing SARS-CoV PLpro, growth rescue; control for the full effect not named in the record; Potency, µM (top dose mostly 32.9 µM), for inactives: top-dose activity, positive = growth rescue; AID 485353, 2010; hit rate 0.19% among 330,000; also: 0% is about no effect; nearly all actives have a fitted effect of over 55% in size; growth read by luminescence after 48 h
Cruzain inh Det: qHTS Assay for Promiscuous and Specific Inhibitors of Cruzain (with detergent). purified cruzain, Z-FR-AMC fluorescence, 0.01% Triton. Potency, µM, for inactives: max response, negative = inhibition, actives largely listed as inhibitors. hit rate 0.43% among 200,000; active = well fitted curve in the direction sought with a large enough effect; inconclusive = small, poorly fitted or top-dose-only effect, or another doubt; inactive = no such curve, though single readings can be large; an effect the other way counts as inactive or inconclusive;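 also: plate controls were neutral wells for no effect and buffer without enzyme for full effect; nearly all actives have a fitted effect of over 40% in size; top concentration of the series not given in the record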
Target sequence (P25779 123-467 limits assumed): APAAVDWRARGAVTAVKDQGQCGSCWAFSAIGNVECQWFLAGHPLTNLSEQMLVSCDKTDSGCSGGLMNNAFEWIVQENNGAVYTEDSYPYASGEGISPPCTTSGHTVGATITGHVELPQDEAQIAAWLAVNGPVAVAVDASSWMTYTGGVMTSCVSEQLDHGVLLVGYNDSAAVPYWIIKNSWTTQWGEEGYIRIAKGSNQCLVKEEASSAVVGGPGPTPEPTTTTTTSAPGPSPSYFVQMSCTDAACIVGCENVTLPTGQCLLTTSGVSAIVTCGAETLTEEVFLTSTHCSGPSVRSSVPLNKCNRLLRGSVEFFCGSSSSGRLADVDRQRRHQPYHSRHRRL
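Cysteine protease activity tested under reducing, mildly acidic conditions (100 mM sodium acetate pH 5.5, 5 mM DTT) plus 0.01% Triton X-100. Cruzain 1.5 nM; substrate Z-FR-AMC 2 uM; 15 min compound preincubation at room temperature.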
Lassa entry inh: qHTS for Inhibitors of binding or entry into cells for Lassa Virus | hit rate 1.2% among 300,000 | Lassa virus pseudotype entry inhibition, cell reporter; control for the full effect not named in the record | Potency, µM (doses to about 37.9 µM), inactives show at the top dose activity change, negative = inhibition, hits mostly inhibitors; active means well fitted inhibition curve with a large enough effect; inconclusive means small, poorly fitted or top-dose-only effect, or effect the other way; inactive means flat fitted curve, though single readings scatter; tested in HEK293 cells; also: % is scaled to controls: 0 for no effect and ±100 for the full control effect; nearly all actives have a fitted effect of over 50% in size; luciferase read-out
2A StopGo: High Throughput Screening for Foot and Mouth Disease Virus Antivirals. human cells with a luciferase reporter of 2A StopGo recoding; control for the full effect not named in the record. Potency, µM (doses to about 57.9 µM), for the others: top-dose signal change, negative = less light. hit rate 1.2% among 410,000. AID 1159524, 2015; active = well fitted falling curve with a large enough effect; inconclusive = small, poorly fitted or top-dose-only effect; inactive = no such curve, though single readings can be large or run the other way; tested in HEK293T cells; also: % is scaled to controls: 0 for no effect and ±100 for the full control effect; nearly all actives have a fitted effect of over 45% in size; luciferase light after 4 h
MARV entry inh: qHTS for inhibitors of binding or entry into cells for Marburg Virus. Potency, µM (top dose mostly 37.8 µM), for inactives: at the highest dose activity change, negative = inhibition, hits mostly inhibitors. hit rate 1.8% among 300,000. Marburg virus pseudotyped entry inhibition, cell reporter; control for the full effect not named in the record; about a third of the inactives were read at about 46 µM. AID 540276, 2011; active = well fitted inhibition curve with a large enough effect; inconclusive = small, poorly fitted or top-dose-only effect, or effect the other way; inactive = flat fitted curve, though single readings scatter; tested in HEK293 cells; about a fifth of its hits are not listed in these tables; also: % is scaled to controls: 0 for no effect and ±100 for the full control effect; luciferase read-out
NS1 inh: qHTS Assay for Inhibitors of Influenza NS1 Protein Function; S. cerevisiae slowed by influenza A NS1, growth recovery by OD600; Potency, µM (series often up to 46.1 µM), without a hit: at the top dose activity, positive = more growth; hit rate 0.4% among 270,000; AID 2326, 2010; also: actives are rising curves; nearly all actives have a fitted effect of over 50% in size
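In this qHTS, NS1 from influenza A is expressed in budding yeast, where it slows growth. Cells are switched from glucose to 2% galactose medium (pH 6.0, -URA), treated with compound, and growth recovery is read at OD600.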
Cruzain noTriton: qHTS Assay for Promiscuous and Specific Inhibitors of Cruzain (without detergent) | hit rate 2.3% among 200,000 | AID 1476, 2009 | purified cruzain, Z-FR-AMC fluorescence, no detergent | Potency, µM, for the others: max response, negative = inhibition, usual class: inhibitors; active = well fitted curve in the direction sought with a large enough effect; inconclusive = small, poorly fitted or top-dose-only effect, or another doubt; inactive = no such curve, though single readings can be large; an effect the other way counts as inactive or inconclusive;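 also: plate controls were enzyme without inhibitor for no effect and buffer without enzyme for full effect; nearly all actives have a fitted effect of over 40% in size; top concentration of the series not given in the record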
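Detergent-free condition (0.00005% Triton X-100) in acetate buffer pH 5.5 with DTT. 1.5 nM enzyme and compound were pre-mixed 15 min, then 2 uM Z-FR-AMC substrate added; reaction progress from fluorescence change between first and third reads (60 s).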
RE007 growth inh: qHTS Assay for Inhibitors of the HIV-1 protein Vpr. S. pombe RE007 Vpr strain, BacTiter-Glo ATP luminescence, 24 h; control for the full effect not named in the record. Potency, µM (highest dose often 92.2 µM), for inactives: at the highest dose activity change, negative = less growth. hit rate 0.21% among 360,000; active = well fitted falling curve with a large enough effect; inconclusive = small, poorly fitted or top-dose-only effect; inactive = no such curve, though single readings can be large or run the other way;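 also: % is scaled to controls: 0 for no effect and ±100 for the full control effect; nearly all actives have a fitted effect of over 50% in size; the assay follows cell death caused by Vpr and the record does not say whether a fall means rescue or toxicity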
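Fission yeast RE007 carrying one integrated HIV-1 vpr copy, seeded at OD 0.01 in PMG+AL medium with 23 nL pinned compound. Grown 24 h at 30 degrees; viability read by BacTiter-Glo luminescence after 5 min.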
Numbers without * were called inactive; ? = inconclusive; · = not tested or not shown; & = joins results of further samples; [ ] = remark or other dose. Unless noted, calls follow the shape of the dose curve; as a rule, active means well fitted rising curve with a large enough effect; inconclusive means small, poorly fitted or top-dose-only effect; inactive means no such curve, though single readings can be large or run the other way. Potency is read from the fitted curve at half-maximal effect.

SMILES	SARS PLpro yeast	Cruzain inh Det	Lassa entry inh	2A StopGo	MARV entry inh	NS1 inh	Cruzain noTriton	RE007 growth inh
CCc1cc(=O)oc2cc(C)cc(OCC(=O)NCCCn3ccnc3)c12	22%	·	·	-3%	·	0%	·	-13%
CC(C)(C)NCc1ccccc1OCc1cccs1	2%	1.3%	-3%	·	?	0%	5%	-6%
O=C(O)c1cccc(NS(=O)(=O)c2cc(S(=O)(=O)c3ccc(Cl)cc3)ccc2Cl)c1	-5%	·	9%	-18%	8%	-12%	·	9%
CS(=O)(=O)N(CCC#N)Cc1ccc(C=O)o1	4%	·	3%	-10%	-1%	5%	·	-8%
Cc1cc(C(=O)OC(C)C(=O)NC2CCCCC2C)c(C)o1 (stereo unspecified)	-2%	·	4%[46.1 µM]	?	-4%	·	·	-6%
O=C(c1ccc(OC2CCN(C/C=C/c3ccc(F)cc3)CC2)cc1)N1CCCC1	-4%	·	-24%[46.1 µM]	-14%	?	-11%	·	-3%
CCOC(=O)c1ccc(-c2ccc3c(=O)c4ccccc4n(C)c3c2)cc1F	-13%	·	·	9%	·	16%	·	18%
O=C(O)c1ccccc1C(=O)OCCCCOC(=O)c1ccccc1C(=O)O	-1%	0.7%	-1%	-15%	?	4%	-2%	-11%
COc1ccc(CN2C(=O)c3ccccc3C2C(=O)NC2CCCC2)c(OC)c1 (stereo unspecified)	4%	2.1%	-28%	11%	5%&-21%	-41%	0%	11%
O=C(Cn1cnc2c(nnn2-c2ccccc2)c1=O)NCc1ccc(F)cc1	6%	·	·	-3%	·	3%	·	1%
O=C(N=C1SC2CS(=O)(=O)CC2N1c1ccc(Br)cc1Cl)C1CC1 (stereo unspecified)	-1%	·	?	-1%	-4%[46.1 µM]	2%	·	-13%
CC1CCCCC1NC(=O)CCNS(=O)(=O)c1cc(Br)cnc1N (stereo unspecified)	19%	·	·	12%	·	0%	·	5%
Cc1nc2ccc(F)cc2cc1C(=O)Nc1cccc(Cl)c1C	-3%	1.1%	14%	-1%	-12%	-2%	?	8%
O=C(NC1CC1)C1CCN(C(=O)c2ccc(Cl)cc2)CC1	2%	·	15%	1%	8%[46.1 µM]	13%	·	5%
CCCCN(CC)c1ncnc2c1sc1nc(N3CCOCC3)c3c(c12)CCCC3	·	2.8%	25%[46.1 µM]	-2%	·	·	2%	·
Cc1ccc2c(c1)N(S(=O)(=O)c1ccc(CN3C(=O)c4cccnc4C3=O)cc1)CCO2	1%	·	·	-4%	·	14%	·	1%
COc1cc2c(=O)c(C(=O)c3ccc(C)c(C)c3)cn(Cc3ccccc3F)c2cc1OC	·	-3.4%	?	?	?	·	?	·
Cc1[nH]nc2c1C(c1ccsc1C)C(C#N)=C(N)O2 (stereo unspecified)	-7%	3.1%	-1%	·	-9%	-12%	6%	1%
Cn1cccc1C(=O)C(=O)Nc1ccc(Cl)cc1	-4%	-2.7%	?	8%	?	-24%	-4%	?
O=C(c1cc(-c2ccco2)on1)N1CCCc2ccccc21	1%	-11%	12%	29%	8%	-49%	1%	-15%
O=C(Nc1ccccc1N1CCN(c2ccccc2)CC1)C1CCCCC1	2%	0.2%	-18%	·	-22%	-25%	-19%	-3%
CCOc1cc2[nH]c(=S)n(CCCCC(=O)NCc3ccco3)c(=O)c2cc1OCC	-2%	-3.3%	4%	10%	-1%	-6%	?	9%
CCCc1c(C(=O)N/N=C/c2ccccc2OCc2ccc(F)cc2)nnn1-c1nonc1N	-2%	·	·	-11%	·	10%	·	-7%
COC(=O)c1cc(S(=O)(=O)N2CCC(C(N)=O)CC2)oc1C	0%	·	·	27%	·	-1%	·	-3%
Cc1ccc2oc(=O)n(CC(=O)c3ccc(F)cc3)c2c1	0%	·	4%	5%	-4%	6%	·	-5%

More entries follow.
SMILES	SARS PLpro yeast	Cruzain inh Det	Lassa entry inh	2A StopGo	MARV entry inh	NS1 inh	Cruzain noTriton	RE007 growth inh
CCCN1CCN(C(=O)Nc2ccc(OCC)cc2)CC1	-1%	·	?	-16%	7%	-11%	·	-10%
O=C(O)C(c1ccccc1)C1(O)CCCCC1 (stereo unspecified)	-2%	·	·	-5%	·	5%	·	0%
COc1ccccc1N1CCN(S(=O)(=O)c2cc(-c3cc(C)no3)ccc2C(C)C)CC1	18%	·	-2%[46.1 µM]	-14%	-13%[46.1 µM]	-1%	·	15%
CCCCCCCCNC(=O)c1cnsn1	-24%	-3.6%	10%[46.1 µM]	13%	3%	-3%	1%	4%
COC(=O)c1sc(NC(=O)c2ccc(C)o2)nc1C	-47%	-11%	-20%	6%	?	-24%	-17%	-20%
CC(=O)Nc1c(O)nc(SCC(=O)Nc2c(C)cccc2C)[nH]c1=O	3%	-0.2%	8%	-1%	-8%	?	-2%	3%
CNc1ccccc1C(=O)OC(C)C(=O)Nc1ccc(S(=O)(=O)N2CCCC2)cc1 (stereo unspecified)	-3%	·	?	-24%	-6%	-2%	·	2%
O=C1NC(=O)N(c2cccc(Cl)c2)C(=O)/C1=C\c1ccc(Sc2nc3ccccc3[nH]2)o1	9%	-21%	1%	-18%	19%	1%	14%	-27%
Cc1noc(C)c1COC(=O)/C=C/c1ccccc1Cl	-5%	·	2%	0%	6%[46.1 µM]	·	·	-23%
O=C(c1ccc(Cn2cc(Br)cn2)cc1)N1N=C(C(F)F)CC1(O)C(F)F (stereo unspecified)	-4%	-5.4%	1%	-22%	-11%	-7%	-4%	-26%
O=C(c1cc2nc(-c3ccccc3)cc(-c3ccccc3)n2n1)N1CCCC1	13%	·	-17%[46.1 µM]	45%	?	·	·	12%
O=C1OCC/C1=C\c1ccc(O)cc1	1%	·	·	12%	·	1%	·	-4%
O=C(COC(=O)c1ccc(S(=O)(=O)N2CCCCC2)cc1)NCc1ccccc1	-27%	·	5%	-18%	-24%	·	·	-8%
Cc1ccccc1OCC(=O)N/N=C/c1ccc(Sc2nc3ccccc3s2)o1	1%	-2.1%	?	-14%	-23%	15%	-22%	15%
CC1(C)C2CCC1(CS(=O)(=O)N1CCOCC1)C(=O)C2 (stereo unspecified)	-1%	1.3%	1%	-14%	-1%	11%	9%	4%
Cc1ccc(C)c(N2CCN(C(=O)Cn3cccc3)CC2)c1	-7%	1.0%	-9%	?	?	-2%	-3%	-21%
CS(=O)(=O)Nc1nc2n(n1)C(c1ccc(F)cc1)CC(c1ccccc1)N2 (stereo unspecified)	-3%	·	·	10%	·	1%	·	7%
COc1ccc(CNC(=O)CN(Cc2ccc(OC)cc2)C(=O)c2csnn2)cc1	1%	·	·	11%	·	-4%	·	3%
c1ccc(-c2ccc(C3CCCN3)cc2)cc1 (stereo unspecified)	-6%	·	·	6%	·	6%	·	2%
CC(C)(C)C(=O)/C=C/c1ccc(Oc2ccccc2)cc1	-3%	·	·	58%[activator]	·	-34%	·	-14%
Cc1ccc(S(=O)(=O)C2(C(=O)N3CCN(c4ccccc4F)CC3)CC2)cc1	0%	·	4%[46.1 µM]	21%	2%[46.1 µM]	-2%	·	7%
CC1CN(C(c2cccs2)c2sc3ncnn3c2O)CC(C)O1 (stereo unspecified)	10%	-4.2%	·	5%	·	2%	-2%	0%
O=C(Nc1cccc(C(F)(F)F)c1)C1CCCN(S(=O)(=O)c2cccc3nonc23)C1 (stereo unspecified)	·	-2.2%	9%[46.1 µM]	-14%	22%[46.1 µM]	·	6%	·
CCOC(=O)c1c(S(=O)(=O)N2CCCC(C(=O)NCc3ccccc3OC)C2)c(C)n(C)c1C (stereo unspecified)	·	2.6%	-2%[46.1 µM]	-5%	·	·	0%	·
Cn1ccc(NC(=O)Nc2cccc(C(F)(F)F)c2)n1	-1%	·	-22%[46.1 µM]	1%	?	-4%	·	12%

The list goes on.
SMILES	SARS PLpro yeast	Cruzain inh Det	Lassa entry inh	2A StopGo	MARV entry inh	NS1 inh	Cruzain noTriton	RE007 growth inh
O=C(NCC(c1cccnc1)N1CCc2ccccc2C1)C(=O)Nc1ccc(F)cc1F (stereo unspecified)	·	1.9%	2%[46.1 µM]	-22%	·	·	-17%	·
CCOc1ncccc1C(=O)N=C1SCCN1C(=O)c1cccnc1OCC	-2%	·	20%	-14%	-6%[46.1 µM]	·	·	-8%
CCOC(=O)c1ccc(N2CN(C3CCCCC3)CNC2=S)cc1	-18%	-4.1%	23%	18%	3%	?	15%	-2%
CCOc1ccc2nc(N3CCC(C(=O)NCCCN4CCOCC4)CC3)sc2c1	1%	·	-11%	1%	?	3%	·	3%
O=C(NCC(c1ccc(F)cc1)N1CCOCC1)c1ccc(C(=O)c2ccccc2)cc1 (stereo unspecified)	-4%	·	-11%	-25%	-21%[46.1 µM]	-18%	·	5%
Cc1ccc(C)c(Cn2c(=O)cc(C)c3c(C)nn(-c4cccc(F)c4)c32)c1	·	-1.2%	13%[46.1 µM]	-8%	·	·	-7%	·
O=C(COc1ccccc1[N+](=O)[O-])Nc1cccc(Cl)c1N1CCOCC1	?	·	?	40µM*	?	-34%	·	11%
COc1ccccc1CC1C(=O)C2CCN1CC2 (stereo unspecified)	3%	4.6%	8%	-18%	?	6%	6%	-15%
COc1ccccc1-n1c(=O)c2c3c(sc2n(Cc2ccccc2F)c1=O)CN(C(C)=O)CC3	·	5.5%	5%[46.1 µM]	-17%	·	·	9%	·
CCc1ccc(CSc2nccn2-c2ccccc2)cc1	?	-3.5%	0%	-3%	-7%	-6%	-14%	-5%
Cc1ccc2c(c1)[nH]c1c(=O)n(Cc3ccccn3)cnc12	2%	0.2%	-2%	15%	?	-4%	-4%	23%
O=C(COc1cc2oc(=O)c3c(c2cc1Cl)CCCC3)NCC1CCC(C(=O)O)CC1 (stereo unspecified)	-1%	·	·	16%	·	4%	·	-5%
COc1ccc(/C=N/NC(=O)CN(C)C(=O)OCc2ccccc2)cc1OC	1%	·	?	-30%	-1%[46.1 µM]	-9%	·	14%
